Bioassay records: PubChem, National Center for Advancing Translational Sciences (NCATS)
gsp antag = antagonizes gsp, the McCune-Albright syndrome mutation | gsp-mutant cells, cAMP HTRF, 30 min; control for the full effect not named in the record | Potency, µM (series often up to 76.9 µM), inactives show top-dose activity change, negative = inhibition, actives largely listed as inhibitors | 340,000 compounds, 0.4% hits; active = falling curve of any shape with a large fitted effect; inconclusive = falling curve, mostly with a smaller effect; inactive = flat or rising curve; cell line not stated here;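 also: intracellular cAMP measured with PDE inhibitor Ro 20-1724 present during compound exposure; potency is read from the fitted curve at half-maximal effect; % is scaled to controls: 0 for no effect and ±100 for the full control effect; nearly all actives have a fitted effect of over 65% in size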
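Measurement of cellular cAMP by homogeneous time-resolved fluorescence following a 30 min compound exposure at 37C. The PDE inhibitor […] was present throughout; the assay buffer was DPBS with 0.05% BSA and 0.005% Tween 20.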
gsp ag = activates gsp, the McCune-Albright syndrome mutation; gsp mutant cells, cAMP HTRF, 30 min; control for the full effect not named in the record; Potency, µM (series often up to 76.9 µM), inactives show at the top dose activation (cAMP increase), actives largely listed as activators; 340,000 compounds, 0.13% hits; active = well fitted activation curve with a large enough effect; inconclusive = small, poorly fitted or top-dose-only effect, or another doubt; inactive = no such curve, though single readings can be large or run the other way; cell line not stated here;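 also: phosphodiesterase inhibitor Ro 20-1724 added with compounds to block cAMP breakdown; potency is read from the fitted curve at half-maximal effect; nearly all actives have a fitted effect of over 60% in size; about a fifth of the inactives were tested at one dose only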
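Cells in DMEM/10% FBS with G418 were pretreated with compounds in DMSO plus […] (300 uM stock) for 30 min at 37C. cAMP was measured by HTRF (cAMP-d2 plus anti-cAMP antibody-K) after 30 min at room temperature.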
Sfp inh = blocks B. subtilis Sfp PPTase activity. Q9F4F7. Biochemical Sfp PPTase activity, qHTS. Potency, µM, without a hit: max response, negative = inhibition, actives largely listed as inhibitors. 310,000 compounds, 3.5% hits. AID 1490; active = well fitted inhibition curve with a large enough effect; inconclusive = small, poorly fitted or top-dose-only effect, or another doubt; inactive = no such curve, though single readings can be large or run the other way;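 also: the enzyme is Sfp with the accession as filed and its product quenches rhodamine fluorescence; potency is read from the fitted curve at half-maximal effect; 0% = enzyme reaction without inhibitor and -100% = no enzyme wells; top concentration of the series not given in the record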
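Sfp 15 nM + cpd, 15 min RT; start w/ rhodamine-CoA 5 uM, BHQ-2-YbbR 12.5 uM (final); 50 mM Hepes pH 7.6, 10 mM MgCl2, 0.01% NP-40, 0.01% BSA; read 525/598 nm at 0 and 30 min.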
ClpP mod = qHTS Assay for Activators of ClpP | 340,000 compounds, 1.9% hits | purified B. subtilis ClpP, FRET peptide cleavage, 20 min | ATP-dependent Clp protease proteolytic subunit (Bacillus subtilis (strain 168)), P80244 | AID 651965, 2013 | Potency, µM (titrated, usually from 57.5 µM), for inactives: at the highest dose activity change, negative = active; active = well fitted falling curve with a large enough effect; inconclusive = small, poorly fitted or top-dose-only effect; inactive = no such curve, though single readings can be large or run the other way; also: potency is read from the fitted curve at half-maximal effect; the source files actives as falling curves though it sought activators and does not explain the sign; nearly all actives have a fitted effect of over 65% in size; many hits overshoot -100%
Target sequence (P80244 whole entry, looked up): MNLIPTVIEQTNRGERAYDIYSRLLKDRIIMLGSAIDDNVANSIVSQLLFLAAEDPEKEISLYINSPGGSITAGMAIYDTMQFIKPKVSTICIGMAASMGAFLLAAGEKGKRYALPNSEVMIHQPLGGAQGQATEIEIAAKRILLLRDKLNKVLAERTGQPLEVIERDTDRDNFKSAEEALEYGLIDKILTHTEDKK
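Purified B. subtilis ClpP, 10 microg/mL final in Tris/HCl pH8 with KCl, BSA, glycerol and Tween-20, cleaved an Abz/nitrotyrosine-quenched decapeptide. Fluorescence (ex 320, em 430) was read at 0 and 20 min at room temperature. Delta was normalized to 5.8 microM ADEP and DMSO/no-enzyme controls.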
CtBP-E1A inh = blocks the CtBP interaction with E1A; AlphaScreen GST-E1A/His-CtBP binding, 1536-well; hits give low values; control for the full effect not named in the record; activity change, % (test concentration not listed); 340,000 compounds, 0.49% hits; in the data active means activity change below about -65%; inconclusive means about -30% to -65%; inactive means above about -30%; also: % is scaled to controls: 0 for no effect and ±100 for the full control effect
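Steps: dispense buffer (Tris pH 8.0, NaCl 300 mM, TCEP 1 mM, BSA, Tween 20); add 5X protein mix (GST-E1A, His-CtBP, 125 nM each); pin 23 nL compound; 2 h at 37 °C, dark; add 5X beads (50 ug/mL); 1 h; read.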
Menin-MLL FL inh = displaces fluorescein MLL peptide from human menin | Fluorescence polarization, fluorescein-MLL peptide displacement from menin | FP activity change, % at 61.4 µM | 290,000 tested, under 10 active | AID 1766; inconclusive = falling polarisation curve, or a change in total fluorescence; inactive = total fluorescence flat and polarisation flat or rising; no compound was filed as active; the % refers to the polarisation; negative = inhibition;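 also: % of control where 0% means no effect; inhibitors lower the polarisation; unlabelled MLL peptide was the positive control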
TRPV1 potentiator = enhances activation of the human vanilloid receptor TRPV1 | potentiation, % at 8.33 µM | AID 540277 | Q8NER1 | 320,000 compounds, 0.02% hits | TRPV1-expressing cells, Fluo-8 calcium influx, capsaicin EC20 potentiation; host cell line not named in the record; control for the full effect not named in the record; active means potentiation above 80%; inconclusive means 30% to 80%; inactive means below 30%; also: 0% is about no effect
Target sequence (Q8NER1 whole entry, looked up): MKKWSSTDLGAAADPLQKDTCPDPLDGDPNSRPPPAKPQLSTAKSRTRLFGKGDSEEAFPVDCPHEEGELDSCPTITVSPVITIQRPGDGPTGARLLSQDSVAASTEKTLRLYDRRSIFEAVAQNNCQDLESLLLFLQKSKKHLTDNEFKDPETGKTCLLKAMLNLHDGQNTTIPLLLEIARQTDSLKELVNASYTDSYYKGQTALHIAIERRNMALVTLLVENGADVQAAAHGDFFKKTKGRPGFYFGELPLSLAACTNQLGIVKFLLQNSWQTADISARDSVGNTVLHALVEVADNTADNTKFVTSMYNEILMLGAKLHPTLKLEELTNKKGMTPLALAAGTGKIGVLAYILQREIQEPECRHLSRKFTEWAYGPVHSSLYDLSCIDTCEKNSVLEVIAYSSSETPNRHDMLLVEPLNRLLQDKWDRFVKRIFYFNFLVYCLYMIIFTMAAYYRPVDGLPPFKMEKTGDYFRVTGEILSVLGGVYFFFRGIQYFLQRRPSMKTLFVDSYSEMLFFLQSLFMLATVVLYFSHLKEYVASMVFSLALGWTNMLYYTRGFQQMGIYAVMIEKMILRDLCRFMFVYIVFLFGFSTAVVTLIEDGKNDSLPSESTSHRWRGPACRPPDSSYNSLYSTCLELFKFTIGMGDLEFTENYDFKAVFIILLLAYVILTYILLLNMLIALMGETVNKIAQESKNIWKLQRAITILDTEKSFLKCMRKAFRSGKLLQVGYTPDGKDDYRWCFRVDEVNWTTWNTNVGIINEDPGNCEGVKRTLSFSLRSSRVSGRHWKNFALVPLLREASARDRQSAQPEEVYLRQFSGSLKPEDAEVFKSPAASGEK
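Fluo-8 calcium influx in TRPV1-expressing cells, kinetic read (ex 480/em 520 nm). Compound added and read 3 min for agonist activity, followed by capsaicin at EC20 final and 2 min further read for enhancement.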
* hit, by the source's call; ? = inconclusive; . = not tested or not shown; [ ] = dose if it differs, or a comment.

smiles	gsp antag	gsp ag	Sfp inh	ClpP mod	CtBP-E1A inh	Menin-MLL FL inh	TRPV1 potentiator
NC(=O)C1CCN(CCC(=O)Nc2ccc(F)c(F)c2)CC1	3%	-12%[15.4 µM]	-3%	-2.9%	3	1.4	?
CCn1c(-c2cccnc2Cl)nc2ccccc21	9%	-5%	22%	-11%	10	-1.9	-23
CN(C)S(=O)(=O)c1ccc(N2CCOCC2)c(C(=O)O)c1	-3%	28%	-3%	-1.2%	4	0.3	2
Nc1cc2ccccc2oc1=O	3%	26%	13%	1.9%	7	4.6	9
Cc1nc(N2CCOCC2)c(C#N)c(C)c1Br	-5%	5%	-3%	-24%	15	2.1	10
N=c1n(Cc2ccccc2)c2ccccc2n1CC(O)c1ccco1 (stereo not given)	11%	?	6%	0.7%	-4	7.4	-6
Cc1ccccc1NC1=NC(=S)N(c2ccccc2)C12CCCCC2	-26%	21%	-4%	28µM*	-6	0.2	-14
O=C(NNS(=O)(=O)c1ccc(Cl)cc1)c1cnn(-c2ccccc2)c1-n1cccc1	-12%	?	8%	-4.9%	-5	2.6	8
C/C(=N\Nc1ncc(Cl)cc1Cl)c1ccc2c(c1)OCO2	5%	10%	79µM*	-1.2%	.	0.6	-5
Cc1ccc(S(=O)(=O)Nc2ccc3c(c2)OCCO3)c(C)c1NS(C)(=O)=O	-10%	-42%[inhibitor]	3%	.	4	-3.6	2
CCOc1ccc(C(=O)N/N=C/c2cc([N+](=O)[O-])cs2)cc1	-4%	-55%[inhibitor]	10%	-1.7%	-19	-3.8	4
Cc1cc(C(=O)CCC(=O)NC(C)c2ccc(S(N)(=O)=O)cc2)c(C)s1 (stereo not given)	-17%	-102%[inhibitor]	.	-1.4%	-4	.	-11
CSc1ccc(CNCc2ccco2)cc1	10%	-5%[15.4 µM]	10%	2.5%	-1	-2.8	2
COc1ccc(C(=O)COC(=O)c2c(C)noc2C)cc1Cl	-6%	?	.	.	31	.	.
O=C(O)c1cccc(S(=O)(=O)NCC2CCCO2)c1 (stereo not given)	-4%	7%	10%	-1.2%	7	1.2	1
Cc1cccc(COC[C@H](Cc2ccccc2)N2CCN(C(=O)c3cccc(Cl)c3)CCC2=O)c1	.	.	-1%	0.9%	-1	-3.6	.
O=C1CC(c2ccccc2)CC(O)=C1C=NCC1CCCO1 (stereo not given)	2%	-23%	-1%	0.3%	3	0.0	-14
COc1ccc(CCN2CC(C(=O)NCc3nc4ccccc4n3C)CCC2=O)cc1 (stereo not given)	7%	-9%[15.4 µM]	-4%	?	-13	.	-7
O=C(CNC(=O)c1ccccc1)OCc1nnc(-c2ccc(Cl)cc2)o1	.	-4%[15.4 µM]	10%	.	0	2.9	-5
CCOC(=O)[C@H]1[C@H]2COc3ccc(C)cc3[C@@H]2N2C(=O)c3ccccc3NC(=O)[C@@]12C	-11%	.	.	-2.2%	1	.	7
Cc1ccc(C(=O)NC(C)c2ccncc2)o1 (stereo not given)	1%	22%	-5%	-0.6%	0	.	2
CCC(=O)NC(O)C(=O)c1ccc(C)cc1 (stereo not given)	3%	0%	14%	-0.1%	6	-2.0	-18
CCC(OC(=O)c1nsc(Cl)c1Cl)C(=O)NCc1ccco1 (stereo not given)	-2%	-10%	-8%	0.9%	2	2.2	2
Cc1nonc1OCCNCCNc1ccccc1[N+](=O)[O-]	4%	-3%	16%	0.1%	.	-2.1	6
CCCn1c(NCc2c[nH]c3ccccc23)nc2ccccc21	1%	?	-4%	2.1%	-5	6.2	6
Cc1ccc(C2=CSC3=NCCN23)c(C)c1	0%	-29%	-26%	0.9%	2	-1.7	-9
C/C(=N/NC(=O)c1ccc(C)nc1)c1ccc2c(c1)CCCC2	12%	-1%[15.4 µM]	-1%	.	-6	-1.6	-3
CC(C)CC1CCCCC1OC(=O)C[N+]1(C)CCCCC1 (stereo not given)	-1%	?	12%	.	1	1.6	10
O=P(Cc1cc(Br)cc(Br)c1OCCO)(c1ccccc1)c1ccccc1	-5%	10%[15.4 µM]	5%	.	-2	-0.8	-17
Cc1nc2cc(-c3ccccc3)nn2c(C)c1CCC(=O)N1CCN(c2ccccn2)CC1	.	.	12%	.	.	-0.7	1
CCCCN(C(=O)CCC(=O)Nc1cc(C)on1)C(C(=O)NC1CCCC1)c1ccc(OCC)cc1 (stereo not given)	-25%	15%	4%	.	4	2.0	?
CC(C)NC(=O)NC(=O)COC(=O)CCOc1ccccc1	13%	-3%	-1%	-0.9%	2	3.5	-4
O=C(CSc1nnnn1-c1ccc(O)cc1)c1cc2ccccc2o1	-26%	-7%	-18%	0.0%	.	?	-9
O=C(O)COc1ccccc1/C=C1\SC(=S)N(/N=C/c2ccccc2O)C1=O	-22%	-5%	?	4.0%	?	5.2	0
COc1cc(NC(=O)Cn2c(=O)n(-c3cccc(C)c3)c(=O)c3c(C)c(C)sc32)cc(OC)c1	-3%	-53%[inhibitor]	2%	-4.5%	-13	3.8	25
Fc1ccccc1NC(=S)NC1CCCC1	-2%	?	14%	-1.0%	.	-1.6	-6
CCCC(c1nnnn1C(C)(C)C)N1CCN(Cc2ccccc2)CC1 (stereo not given)	2%	7%[15.4 µM]	10%	.	4	-0.1	3
Cc1nnsc1C(=O)Nc1ccc(Cl)cc1Cl	1%	10%[15.4 µM]	6%	-0.1%	8	3.4	1
O=[N+]([O-])c1cccnc1Sc1ccc(Cl)cc1	-3%	-6%	-2%	.	-24	-1.4	-4
CCOC(=O)C1CCCN(C(=O)c2ccc(S(=O)(=O)Nc3ccccc3OC)cc2)C1 (stereo not given)	-15%	?	.	-0.3%	.	.	-9

For reference, part of the list above.
smiles	gsp antag	gsp ag	Sfp inh	ClpP mod	CtBP-E1A inh	Menin-MLL FL inh	TRPV1 potentiator
NC(=O)C1CCN(CCC(=O)Nc2ccc(F)c(F)c2)CC1	3%	-12%[15.4 µM]	-3%	-2.9%	3	1.4	?
CCn1c(-c2cccnc2Cl)nc2ccccc21	9%	-5%	22%	-11%	10	-1.9	-23
CN(C)S(=O)(=O)c1ccc(N2CCOCC2)c(C(=O)O)c1	-3%	28%	-3%	-1.2%	4	0.3	2
Nc1cc2ccccc2oc1=O	3%	26%	13%	1.9%	7	4.6	9

Further results.
smiles	gsp antag	gsp ag	Sfp inh	ClpP mod	CtBP-E1A inh	Menin-MLL FL inh	TRPV1 potentiator
CCOc1ncccc1C(=O)OCC(=O)Nc1cccc(C(C)=O)c1	-9%	-5%	-6%	-1.1%	-2	-1.5	10
CCOC(=O)/C=C(\C)N1N=C(c2ccccc2)CC1c1ccccc1 (stereo not given)	-1%	-22%	-25%	-0.6%	8	15	-7
COC(=O)[C@@H](NCc1ccc(OC)c(B(O)O)c1)C(C)C	11%	.	.	1.6%	-1	.	.
Cc1cc(C(=O)Nc2cc(S(C)(=O)=O)ccc2Cl)c(C)o1	10%	-1%[15.4 µM]	.	0.0%	8	.	.
O=C(COC(=O)c1nc(Cl)ccc1Cl)NCc1ccc(Cl)cc1	-15%	-13%	.	-2.1%	.	.	-4
CCn1nnnc1NCc1ccc(OCc2c(F)cccc2Cl)c(OC)c1	-25%	-15%	7%	2.2%	.	5.1	-20
CC(=O)Nc1ccc(S(=O)(=O)N2CCN(c3nc4ccccc4n3CC(C)C)CC2)cc1	?	?	2%	-0.3%	.	-2.6	-10
CC(=O)Nc1sc(C)c(C)c1C(=O)OCC(=O)Nc1ccccc1	9%	-22%	.	-6.1%	7	.	5
COc1ccc(-c2ccnc3nc(Sc4ncc(C(F)(F)F)cc4Cl)nn23)cc1	-17%	?	0%	64%	7	0.4	0
Cc1ccc(S(=O)(=O)N2CCN(C(=O)C3CCCO3)CC2)cc1C (stereo not given)	9%	6%	4%	0.4%	6	1.6	13
O=C(C1=C[C@@H](c2coc3ccccc3c2=O)C[C@@H](OCc2ccc(CO)cc2)O1)N1CCOCC1	-3%	.	1%	-1.9%	-4	-0.1	-19
CN(Cc1ccccc1)C(=O)c1nc2ccccn2c1CN1CCc2sccc2C1	-26%	-8%[15.4 µM]	-4%	.	-11	-0.1	-9
O=C(N/N=C/C=C/c1ccccc1[N+](=O)[O-])c1cc(-c2ccccc2)n[nH]1	-22%	-8%	?	3.3%	-16	7.4	1
CCc1cc(=O)oc2cc(OCC(=O)N3CC[C@@]4(O)CCCC[C@H]4C3)ccc12	-8%	.	17%	4.7%	-22	-2.2	-3
CCn1c(SCc2nnc(-c3ccccc3)o2)nc2c1c(=O)n(C)c(=O)n2C	.	.	9%	.	.	1.5	-2
CCOC(=O)Cc1nnc(NC(=O)CCc2ccccc2)s1	1%	-20%	18%	.	3	-1.5	-6
COc1ccc(-c2csc(NC(=S)NC(=O)c3ccco3)n2)cc1	4%	-10%	?	-1.5%	.	-1.9	5
CN(Cc1c(F)cccc1Cl)S(=O)(=O)c1cccs1	8%	-9%[15.4 µM]	-7%	.	15	-8.3	8
CCCOc1ccc(/C=N/NC(=O)C2CC2)c(OCCC)c1	-10%	-2%	4%	.	6	-5.4	-17
O=C(N/N=C/c1cccc(Oc2ccccc2)c1)c1cc[n+]([O-])cc1	2%	-28%	13%	.	-8	0.0	-19
COc1ccc(/C=N\NC(=O)c2cccc(Br)c2)c(OC)c1	6%	0%[15.4 µM]	4%	-1.9%	-3	-5.0	10
